gsp antagonist – gsp mutant antagonism; gsp-mutant cells, cAMP HTRF, 30 min; control for the full effect not named in the record; Potency, µM (series often up to 76.9 µM), for the others: at the highest dose activity change, negative = inhibition, usual class: inhibitors; 340,000 compounds, 0.4% hits; AID 624288; active = falling curve of any shape with a large fitted effect; inconclusive = falling curve, mostly with a smaller effect; inactive = flat or rising curve; cell line not stated here;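 further: intracellular cAMP measured with PDE inhibitor Ro 20-1724 present during compound exposure; potency means the concentration at half of the fitted maximal effect; on the % scale 0 is the no-effect control and ±100 the full control effect; nearly all actives have a fitted effect of over 65% in size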
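Measurement of cellular cAMP by homogeneous time-resolved fluorescence following a 30 min compound exposure at 37C. The PDE inhibitor […] was present throughout; the assay buffer was DPBS with 0.05% BSA and 0.005% Tween 20.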
D2 ag – human D2 receptor agonism in beta-arrestin assay; P14416; DiscoveRx PathHunter D2 beta-arrestin, luminescence, 90 min; 100% = 57 uM dopamine signal; activation, % (no concentration beside the values); 360,000 compounds, 0.084% hits; AID 624465; in the data active = activation above about 40%; inconclusive = about 15% to 40%; inactive = below about 15%; further: compound concentration not given in the record; the text of the record calls up to 30% inactive
Target sequence (P14416 whole entry, looked up): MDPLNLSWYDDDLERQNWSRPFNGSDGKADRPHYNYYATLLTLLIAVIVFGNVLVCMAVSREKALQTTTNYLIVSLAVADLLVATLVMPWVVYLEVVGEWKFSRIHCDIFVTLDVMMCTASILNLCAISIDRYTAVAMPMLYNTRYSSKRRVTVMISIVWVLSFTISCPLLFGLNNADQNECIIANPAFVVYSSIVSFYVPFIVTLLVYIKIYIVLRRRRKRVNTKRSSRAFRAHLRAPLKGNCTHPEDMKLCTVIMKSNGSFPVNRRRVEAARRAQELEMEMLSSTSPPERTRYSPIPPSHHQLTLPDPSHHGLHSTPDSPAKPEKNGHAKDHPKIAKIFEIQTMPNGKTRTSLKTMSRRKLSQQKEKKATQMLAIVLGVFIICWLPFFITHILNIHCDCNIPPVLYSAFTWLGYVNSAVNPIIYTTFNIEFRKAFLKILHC
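DiscoveRx PathHunter D2 beta-arrestin cells (2,100/well) attached overnight, then compound-stimulated 90 min at 37 C in HBSS/10 mM HEPES/0.1% Tween-20 buffer; beta-galactosidase complementation read by luminescence after 1 h at ambient temperature. Dopamine 57 uM final (EC100) as control.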
D2 potentiator – potentiates the human D2 dopamine receptor allosterically; P14416; DiscoveRx D2 beta-arrestin cells, luminescence, 90 min; 100% = 57 uM dopamine signal; potentiation, % (test concentration not listed); 360,000 compounds, 0.23% hits; AID 624464; active = potentiation of 50% or more; inconclusive = 30% to 50%; inactive = 30% or less;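 further: compound concentration not given in the record; tested on top of an EC20 dose of dopamine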
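PathHunter D2 cells, attached overnight at 37 deg C, received compound in DMSO plus dopamine at EC20 (50 nM final) for 90 min at 37 deg C. Beta-arrestin recruitment was read as luminescence after 1 h with detection reagent at ambient temperature.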
CtBP-E1A inh – blocks the CtBP interaction with E1A. AlphaScreen GST-E1A/His-CtBP binding, 1536-well; active compounds read low; control for the full effect not named in the record. activity change, % (test concentration not listed). 340,000 compounds, 0.49% hits; in the data active means activity change below about -65%; inconclusive means about -30% to -65%; inactive means above about -30%; further: on the % scale 0 is the no-effect control and ±100 the full control effect
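Protein mix (5X: 125 nM each GST-E1A, His-CtBP) was incubated with pinned compound 2 h at 37 deg C in dark, in 50 mM Tris pH 8.0 buffer with 300 mM NaCl. Glutathione donor and nickel acceptor beads followed; AlphaScreen signal read after 1 h.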
Six1-Eya2 blk – Six1/Eya2 interaction inhibition; AlphaScreen GST-Six1/His-Eya2 binding, biochemical; active compounds read low; control for the full effect not named in the record; activity change, % (no concentration beside the values); 360,000 compounds, 0.56% hits; in the data active = activity change below about -65%; inconclusive = about -30% to -65%; inactive = above about -30%; further: on the % scale 0 is the no-effect control and ±100 the full control effect
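AlphaScreen luminescence read after one hour at 37 °C in darkness. Pin-transferred compounds met GST-Six1 and His-Eya2 protein (5X stock 250 nM/500 nM) plus glutathione donor and Ni-chelate acceptor beads (5X, 50 ug/mL).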
gsp ag – gsp mutant agonism | gsp mutant cells, cAMP HTRF, 30 min; control for the full effect not named in the record | Potency, µM (top dose mostly 76.9 µM), for the others: at the top dose activation (cAMP increase), actives largely listed as activators | 340,000 compounds, 0.13% hits | AID 624287; active = well fitted activation curve with a large enough effect; inconclusive = small, poorly fitted or top-dose-only effect, or another doubt; inactive = no such curve, though single readings can be large or run the other way; cell line not stated here;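 further: phosphodiesterase inhibitor Ro 20-1724 added with compounds to block cAMP breakdown; potency means the concentration at half of the fitted maximal effect; nearly all actives have a fitted effect of over 60% in size; about a fifth of the inactives were tested at one dose only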
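Cells in DMEM/10% FBS with G418 were pretreated with compounds in DMSO plus […] (300 uM stock) for 30 min at 37C. cAMP was measured by HTRF (cAMP-d2 plus anti-cAMP antibody-K) after 30 min at room temperature.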
The depositor's hits bear a star; ? = inconclusive; . = not tested or not shown; [ ] = dose if it differs, or a comment.

Start of the listing, in advance, 3 compounds:
SMILES | gsp antagonist | D2 ag | D2 potentiator | CtBP-E1A inh | Six1-Eya2 blk | gsp ag
Cc1ccc(S(=O)(=O)CNC(=S)c2cccc(C)c2)cc1 | -15% | -4.3 | -2 | 4 | 1 | -10%
CC(=O)Nc1ccc(NC(=O)c2cc([N+](=O)[O-])cc([N+](=O)[O-])c2)cc1 | -4% | ? | 10 | 1 | 5 | 11%
Cc1noc(NS(=O)(=O)c2ccc(NC(=O)CCC3CCCCC3)cc2)c1C | -15% | -1.1 | -2 | 0 | -2 | 0%

Main list, from the first entry:
SMILES | gsp antagonist | D2 ag | D2 potentiator | CtBP-E1A inh | Six1-Eya2 blk | gsp ag
Cc1ccc(S(=O)(=O)CNC(=S)c2cccc(C)c2)cc1 | -15% | -4.3 | -2 | 4 | 1 | -10%
CC(=O)Nc1ccc(NC(=O)c2cc([N+](=O)[O-])cc([N+](=O)[O-])c2)cc1 | -4% | ? | 10 | 1 | 5 | 11%
Cc1noc(NS(=O)(=O)c2ccc(NC(=O)CCC3CCCCC3)cc2)c1C | -15% | -1.1 | -2 | 0 | -2 | 0%
NC(=O)C1C(=O)c2ccccc2C1(C[N+](=O)[O-])c1ccccc1 (stereo not drawn) | 2% | -1.8 | -7 | -6 | 0 | 13%
CC(C)(C)OC(=O)N1CCC(NC(=O)c2[nH]cnc2C(=O)Nc2ccccc2)CC1 | -8% | 1.5 | 6 | -6 | -9 | .
CNC(=O)/C(C#N)=C/c1ccc(-c2ccc(Cl)cc2)o1 | 7% | 1.3 | -2 | 6 | 0 | 0%[15.4 µM]
COC(=O)c1c[nH]n2c(=O)c(Cc3ccc(F)cc3Cl)c(C)nc12 | -7% | -0.9 | -3 | -1 | 0 | 10%
CSCCC(NC(N)=O)C(=O)Nc1ccc(C)cc1 (stereo not drawn) | -4% | -0.5 | -4 | . | 13 | -1%[15.4 µM]
CCC(C)NC(=O)CSc1n[nH]c(-c2cc(Cl)ccc2OC)n1 (stereo not drawn) | -27% | -2.8 | -21 | -1 | -9 | 12%[15.4 µM]
COc1ccc2nc(NCCCNC(=O)c3cc(OC)c(OC)c(OC)c3)c(C#N)cc2c1 | 4% | 1.4 | -17 | -5 | 11 | -13%
COc1ccc(CCNC2CC(=O)N(CCc3ccccc3)C2=O)cc1 (stereo not drawn) | -4% | -2.4 | -14 | 1 | 3 | -8%
COc1cc(NC(=O)CN2CCN(c3ccccn3)CC2)cc(OC)c1OC | -2% | -1.3 | -4 | -11 | -9 | -19%
S=C(NN=C1C2CC3CC(C2)CC1C3)Nc1ccccc1 | -4% | -2.5 | -10 | -1 | -4 | -12%
COc1cc(S(=O)(=O)NC2CCCC2)ccc1-n1cnnn1 | 2% | 11 | -1 | -19 | -6 | -33%[inhibitor]
O=C(NCCc1ccccc1F)c1cc(COc2ccc(F)cc2F)on1 | . | 1.2 | -6 | 6 | 5 | -18%
CCCCn1c(=O)n(Cc2cccc(F)c2)c(=O)c2c1ncn2Cc1ccco1 | -13% | -0.5 | 24 | 8 | -5 | 12%
CC1CCN(C(=O)c2cc(-c3ccccc3O)on2)CC1 | 5% | -7.6 | -10 | 5 | 4 | -79%[inhibitor]
CC(OC(=O)CCCN=C1NS(=O)(=O)c2ccccc21)C(=O)Nc1ccc(F)cc1Cl (stereo not drawn) | 7% | -2.3 | 22 | 5 | -1 | 4%
COc1ccc(-c2ccc(Nc3ccc(S(=O)(=O)N4CCCC4)cc3)nn2)cc1OC | -9% | 0.8 | 7 | ? | ? | -1%
Cc1cc(NC(=O)CCC(=O)N(c2ccccc2)C(C(=O)NCC2CCCO2)c2cccnc2)no1 (stereo not drawn) | 3% | 1.7 | 20 | 10 | 4 | 17%
CCNC(=O)c1cc(S(=O)(=O)N2CCSCC2)ccc1OC | 1% | 1.4 | -1 | 4 | 7 | -72%[inhibitor]
CC(=O)Nc1ccc(S(=O)(=O)NNC(=S)NCc2ccco2)cc1 | -14% | -5.5 | -28 | 12 | 25 | -50%[inhibitor]
COc1cc(CCCN2C(=S)NC[C@@H]2CCCCN)cc(OC)c1OC | 8% | -2.6 | -8 | 1 | 3 | .
COc1ccc(C2(C(=O)Nc3ccc(S(=O)(=O)Nc4nc(C)cc(C)n4)cc3)CCCC2)cc1OC | -5% | -4.6 | 1 | -1 | -6 | 2%
O=C(COC(=O)CN1C(=O)COc2ccccc21)NC1CCCCC1 | -5% | -7.0 | -8 | 9 | 15 | -31%[15.4 µM]

Next section
SMILES | gsp antagonist | D2 ag | D2 potentiator | CtBP-E1A inh | Six1-Eya2 blk | gsp ag
CC1CCN(c2c(NCC3CCC(C(=O)N4CCCC(C)C4)CC3)c(=O)c2=O)CC1 (stereo not drawn) | -9% | -6.3 | -9 | 1 | 3 | -1%
COc1ccc(NS(=O)(=O)c2cc(NC(=O)C3CCCO3)ccc2N2CCCC2)cc1 (stereo not drawn) | 3% | 0.4 | -5 | -2 | 2 | -1%
COc1ccccc1C(CNC(=O)c1ccc(S(=O)(=O)NCc2ccco2)cc1)N(C)C (stereo not drawn) | 11% | -6.3 | -2 | 12 | 1 | -1%[15.4 µM]
COc1ccccc1C(=O)Nc1nnc(-c2ccc(F)cc2)o1 | -14% | -3.5 | -4 | -2 | -13 | ?
Cc1snc(S(=O)(=O)Cc2c(Cl)cccc2Cl)c1C#N | 10% | -1.2 | -11 | 8 | 3 | 2%
COC(=O)c1c(-c2ccc3ccccc3c2)csc1NC(=O)Cc1ccc(OC)c(OC)c1 | ? | -1.1 | 7 | -19 | ? | -18%
O=C1COc2ccc(C(=O)COC(=O)c3ccccc3F)cc2N1 | 3% | 4.8 | -12 | -1 | 9 | -3%[15.4 µM]
CN(C)C(=O)CCc1ccc2c3c([nH]c2c1)[C@]1(CCc2ccccc2)[C@@H](C(=O)N2CCCCC2)C[C@H](CC(=O)NCCc2ccccn2)C(=O)N1CC3 | -11% | 0.4 | -3 | 1 | -2 | .
CSc1ccccc1NS(=O)(=O)c1ccccc1 | -5% | -4.4 | -12 | 9 | 14 | 4%[15.4 µM]
CCN(CCn1cccn1)C(=O)CCc1nnc(-c2ccccc2)o1 | 3% | -0.7 | 1 | 3 | -2 | ?
CCOc1ccc(S(=O)(=O)N2CCC(C(=O)NCc3ccco3)CC2)cc1 | -3% | 0.7 | -2 | -7 | 3 | -1%
CC1Cc2nc(SCC(=O)Nc3nccs3)n(Cc3ccccc3)c(=O)c2S1 (stereo not drawn) | -13% | -1.6 | -2 | -12 | -16 | -75%[inhibitor]
O=C(Cc1cccc(NC(=O)C2CCCN(C(=O)C3CCC3)C2)c1)Nc1cccc(C(=O)N2CCCC2)c1 (stereo not drawn) | -4% | -1.9 | 8 | 2 | 4 | .
CCOC(=O)NC(=O)/C(C#N)=C\NNc1ncc(C(F)(F)F)cc1Cl | 10% | -2.4 | -8 | 0 | 10 | -2%
Cc1ccc(S(=O)(=O)NC(C)C(=O)Nc2ccc(C(N)=O)cc2)cc1 (stereo not drawn) | 16% | -1.3 | 7 | 8 | 7 | -33%[inhibitor]
Cc1nnc(SCC(=O)NC2CCCCC2C)s1 (stereo not drawn) | -19% | 2.1 | -4 | . | 5 | 5%
O=C(CCCC(=O)Nc1ccc(Br)cc1)N/N=C/c1ccccc1 | 2% | -3.9 | 7 | 5 | 3 | 0%[15.4 µM]
CCc1nc2ccc(C(=O)NCCc3ccccn3)cn2c1N(C)Cc1nccs1 | . | -1.7 | -4 | 6 | 4 | .
Cc1cc2c(nc1C)CCCN2C[C@@H](C)O/N=C1/[C@H]2CCn3c(=O)n(-c4ccccc4)c(=O)n3[C@H]2[C@H](O)[C@@H]2O[C@H]12 | 8% | -1.7 | -7 | -15 | -6 | .
CN=C1S/C(=C\c2cc(C)n(-c3ccccc3F)c2C)C(=O)N1C | 8% | 0.0 | -13 | -7 | -8 | 21%
Cc1nn(C)c(Cl)c1CN1CCCC(CO)(Cc2ccccc2)C1 (stereo not drawn) | 6% | -5.9 | -15 | 0 | 0 | -35%[inhibitor]
CCOC(=O)C1CCN(C(=O)c2cc3cc4cc(OC)ccc4nc3o2)CC1 | -24% | -5.0 | 8 | -17 | -13 | -1%
CC1Cc2nc(SCC(=O)NCC3CCCO3)n(C)c(=O)c2S1 (stereo not drawn) | 2% | -0.1 | 14 | -1 | 16 | 10%
CN(C)c1ccc(NC(=S)NC(=O)/C=C/c2ccco2)cc1 | 5% | 6.4 | 1 | 3 | 6 | -6%
CCOC(=O)C1CCN(C(=S)NC2CCCC2)CC1 | -8% | 4.5 | 0 | 1 | 6 | -6%

Later entries:
SMILES | gsp antagonist | D2 ag | D2 potentiator | CtBP-E1A inh | Six1-Eya2 blk | gsp ag
CC1=CC2(C)NC(=O)C(C)C12 (stereo not drawn) | . | -1.7 | -9 | 0 | 0 | 10%
CCCCNc1c(-c2ccc(-c3ccc(C(C)=O)cc3)c(OC)c2)nc2cc(C)ccn12 | -21% | 9.7 | -28 | -2 | -13 | .
CCOc1ccc(NC(=O)CN(C)C(=O)CCCNC(=O)c2ccc(Cl)cc2)cc1OCC | . | -2.4 | -19 | 2 | -8 | -19%
O=C(O)C(=Cc1ccncc1)c1cccc2ccccc12 | . | -6.4 | -5 | 3 | 1 | 25%
Cc1ccc[n+](CC(=O)Nc2c(Cl)cc(Cl)cc2Cl)c1 | 7% | -2.4 | 4 | 0 | -5 | -3%[15.4 µM]
O=C(c1ccc(Cl)c(S(=O)(=O)N2CCOCC2)c1)N1CCN(c2ccccn2)CC1 | -4% | 1.5 | 5 | . | 4 | ?
COc1cccc(N2CCN(C(=O)Nc3ccc4c(c3)NC(=O)CO4)CC2)c1 | -20% | -1.1 | -2 | -3 | -7 | -8%
COC(=O)c1cc(C(=O)NC(C)(C)CC(C)(C)C)cc([N+](=O)[O-])c1 | -6% | -2.5 | -1 | 5 | -5 | -2%
COCCNC(=O)CCc1c(C)nc2c(-c3ccc(F)cc3)c(C)nn2c1C | -7% | -1.1 | -9 | 4 | -5 | -25%
Cc1nc2cc(NC(=O)Nc3cccc(F)c3)ccc2n1C | 7% | -3.6 | -14 | . | -5 | -33%[inhibitor]
COc1ccccc1Nc1ccc(NS(=O)(=O)c2ccc(C(C)=O)cc2)cc1 | ? | -0.1 | -1 | ? | -16 | -11%
Cn1c(=O)c2c(nc(NCCCO)n2CCc2ccccc2)n(C)c1=O | 5% | -0.8 | -4 | 0 | -2 | 1%
Cc1ccc(C(=O)N/C(=C/c2ccccc2F)C(=O)NCCCn2ccnc2)cc1 | 5% | 5.3 | -9 | 2 | 0 | 5%
CCOC(=O)Cn1cc(C(=O)c2ccco2)c2ccccc21 | 4% | -2.0 | -5 | 4 | 3 | ?
Cc1ccnc(NC(=O)c2cc(F)c(F)cc2Cl)n1 | 12% | 0.2 | -5 | 11 | 2 | 2%[15.4 µM]
CCOc1cc(Br)cc(/C=C2\SC(=Nc3ccccc3)NC2=O)c1O | -25% | -6.0 | -31 | . | -7 | -4%
Cc1ccc2nc(-c3ccccc3)cc(C(=O)N3CC(C)OC(C)C3)c2c1 (stereo not drawn) | -5% | -1.9 | 2 | -2 | -1 | -1%[15.4 µM]
